# Assay outcomes deposited in PubChem BioAssay by Johns Hopkins Ion Channel Center.
# KCNQ2 block: KCNQ2 potassium channel inhibitors, primary screen, cell-based, CHO-K1, FluxOR thallium flux, B-score (AID 2156); 20 min; active compounds read low; only compounds with negative scores are shown here; some inactives read as strong as hits; B-score at 10 µM; actives 1.1% (n = 310,000); O88943;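 active = fluorescence ratio B-score at most minus 3 library SDs, with starting brightness B-score within 2 library SDs, cut at about -5.5 in these data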
# Target sequence (O88943 whole entry, looked up): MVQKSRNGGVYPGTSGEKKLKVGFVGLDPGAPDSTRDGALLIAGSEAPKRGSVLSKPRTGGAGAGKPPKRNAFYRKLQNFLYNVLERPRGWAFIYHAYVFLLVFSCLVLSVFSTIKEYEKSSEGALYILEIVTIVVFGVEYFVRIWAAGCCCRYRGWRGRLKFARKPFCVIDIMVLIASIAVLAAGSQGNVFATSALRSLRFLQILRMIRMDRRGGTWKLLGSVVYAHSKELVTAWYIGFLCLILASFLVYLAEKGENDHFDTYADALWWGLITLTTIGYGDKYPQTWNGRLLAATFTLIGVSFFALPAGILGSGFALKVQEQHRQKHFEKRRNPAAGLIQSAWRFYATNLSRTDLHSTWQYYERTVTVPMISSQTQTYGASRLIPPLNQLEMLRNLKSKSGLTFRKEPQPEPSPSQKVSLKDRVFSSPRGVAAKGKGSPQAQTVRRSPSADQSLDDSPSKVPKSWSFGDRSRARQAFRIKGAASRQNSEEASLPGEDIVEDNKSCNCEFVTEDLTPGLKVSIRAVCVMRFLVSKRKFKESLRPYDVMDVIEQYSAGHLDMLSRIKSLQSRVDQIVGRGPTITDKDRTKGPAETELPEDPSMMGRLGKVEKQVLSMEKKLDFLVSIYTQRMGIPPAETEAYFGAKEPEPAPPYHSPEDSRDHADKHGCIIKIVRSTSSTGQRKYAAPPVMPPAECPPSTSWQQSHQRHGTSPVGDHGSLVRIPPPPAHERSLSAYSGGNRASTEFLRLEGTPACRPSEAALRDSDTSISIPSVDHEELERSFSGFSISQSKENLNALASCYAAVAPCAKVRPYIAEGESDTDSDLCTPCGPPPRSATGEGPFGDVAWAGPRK
# KCNQ2 block baseline: recorded beside KCNQ2 block, whose call it bears; B-score; measured here: initial fluorescence intensity artifact check;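 brightness before thallium and not channel activity; 0 = typical well and far values either way flag optical interference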
# * hit, by the source's call; i = inactive. A portion of the library; the hit share may differ from the screen's.
SMILES,KCNQ2 block,KCNQ2 block baseline
O=C(NC1CCCCC1)C(c1ccccn1)N(C(=O)c1csnn1)C1CC1 (stereo not drawn),i,0.27
Cc1cc(C(=O)N2CCN(Cc3ccccc3)CC2)ccc1[N+](=O)[O-],i,1
O=c1c2[nH]c3ccc(F)cc3c2ncn1CCC1=CCCCC1,i,1.2
CN(C)C(=O)C(=O)c1cccn1-c1ccccc1C#N,i,3.3
O=C(NCCCN1CCC(Cc2ccccc2)CC1)c1ccc2nc(N3CCOCC3)sc2c1,i,-0.02
COc1cccc(NC(=O)CSc2nc3ccccc3nc2N2CCOCC2)c1,i,-0.19
CC(C)(C)NC(=O)C1CC1(c1ccccc1)c1ccccc1 (stereo not drawn),i,-0.89
CCOc1ccc(NC(=O)N2CCC(n3nnc4cc(C)ccc43)CC2)cc1,i,-0.36
CCn1c(CNC(=O)C(C)(C)C)nc2ccccc21,i,0.08
O=C(Nc1ccccn1)C1CCCN(c2ncnc3c2nc2n3CCCCC2)C1 (stereo not drawn),i,0.1
Cn1c(O)c(C=Nc2ccc(Br)cc2)sc1=O,i,0.44
Cc1cc(C)n2nc(-c3ccccc3)c(-c3ccccc3)c2n1,i,0.94
COc1ccc(/C=C2/C(=O)C(C)(C(C)C)CCC2C)cc1 (stereo not drawn),i,-1.4
O=C(NC1CCCCC1)N1CCCc2ccccc21,i,-0.53
CCN(CC)c1ccc(S(=O)(=O)N2CCCCC2)cc1NC(=O)CN1C(=O)NC2(CCCC2)C1=O,i,0.11
O=c1[nH]c2ccc([N+](=O)[O-])cc2nc1/C=C(\O)c1ccccc1,i,-0.07
CN(C)S(=O)(=O)Nc1cccc(Br)c1,i,0.6
O=C(O)Cn1c2c(c3ccccc31)CCCC2,i,1.9
O=C(c1cccnc1)N(c1cc2sc(=O)oc2c2ccccc12)S(=O)(=O)c1ccccc1,i,-0.08
Cc1cccn2c(=O)c(C=O)c(N3CCC4(CC3)OCCO4)nc12,i,-1.7
Cc1cc(NC(=O)CSc2nccn2-c2ccc(F)cc2)no1,i,0.05
COC(=O)C1CN(C(=O)COc2ccc(Cl)cc2C)c2ccccc2O1 (stereo not drawn),-7*,0.14*
COc1ccc(-c2c(C(C)=O)c(C)nc3sc4c(=O)[nH]nnc4c23)cc1,i,0.06
COc1ccc(CCNCC(=O)Nc2ccccc2C(F)(F)F)cc1,i,1
O=C(Nc1nc(-c2ccc(Cl)cc2)cs1)C1CCCO1 (stereo not drawn),i,-1.5
O=C(CSc1nnc(-c2cccnc2)s1)Nc1ccccc1,i,1.5
O=C(NC1CCCC1)C(c1ccsc1)N(Cc1ccco1)C(=O)Cc1cccs1 (stereo not drawn),i,0.01
CCCn1c(SCC(=O)NCC)nc2sc3c(c2c1=O)CCC3,i,0.05
COc1ccc(N2CCN(C(=O)C3CCCO3)CC2)cc1 (stereo not drawn),i,-0.3
O=[N+]([O-])c1ccc(S(=O)(=O)CC2CSc3nc4ccccc4n32)cc1 (stereo not drawn),i,-0.65

# Entries of single compounds as entered above. Order of values: KCNQ2 block, KCNQ2 block baseline
# Shown for CC(C)(C)NC(=O)C1CC1(c1ccccc1)c1ccccc1 (stereo not drawn) → i, -0.89
# Shown for CCN(CC)c1ccc(S(=O)(=O)N2CCCCC2)cc1NC(=O)CN1C(=O)NC2(CCCC2)C1=O → i, 0.11
# Shown for COc1cccc(NC(=O)CSc2nc3ccccc3nc2N2CCOCC2)c1 → i, -0.19
# Shown for O=C(NC1CCCCC1)N1CCCc2ccccc21 → i, -0.53
# Shown for Cn1c(O)c(C=Nc2ccc(Br)cc2)sc1=O → i, 0.44

# Next entries follow.
SMILES,KCNQ2 block,KCNQ2 block baseline
COc1ccccc1C(=O)NNC(=O)CCN1C(=O)/C(=C\c2ccccc2)SC1=S,i,0.05
Cc1ccc(NC(=O)c2ccccc2-c2cc(C)no2)cc1,i,-0.94
COc1ccc(OCC#CCN2CC(C)OC(C)C2)cc1 (stereo not drawn),i,-2.3
O=C(C1=C[C@@H](C2CCCCC2)C[C@@H](OCc2ccc(CO)cc2)O1)N1CCN(Cc2ccccc2)CC1,-6.5*,-0.78*
Cc1nc2scc(-c3ccccc3)c2c(=O)n1N=C1C=CC(=O)C=C1,i,-1.9
Cc1ccc(S(=O)(=O)N2CCN(Cc3ccccc3C(F)(F)F)CC2)cc1,-6*,-0.12*
Cc1cc(C)nc(NC(=O)Cc2ccc(Cl)cc2)c1,i,1.2
C=CC[N+]1(CC#Cc2ccccc2)CCCC1,i,0.41
CCn1c(SCC(=O)c2ccc(F)cc2)nnc1-c1ccoc1C,i,-0.27
Cc1cc(C(=O)NNS(=O)(=O)c2ccc(F)cc2)nn1C(C)(C)C,i,0.26
COc1cc(/C=C2\CC(C(C)(C)C)C/C(=C\c3cc(OC)c(OC)c(OC)c3)C2=O)cc(OC)c1OC (stereo not drawn),i,0.88
Cc1cc(Sc2nc(N(C)C)nc(N(C)C)n2)nc(Cl)n1,i,0.38
CC(C)Oc1cccc(C(=O)C2CCCN(C(=O)c3ccoc3)C2)c1 (stereo not drawn),i,-0.41
CCN(CC)S(=O)(=O)c1ccc(N2CCOCC2)c(NC(=O)COc2ccc(C#N)cc2)c1,i,1.8
COC(=O)C1=CN(c2ccc(Cl)cc2)C=C(C(=O)OC)C1c1ccc([N+](=O)[O-])cc1,i,-0.64
Cc1ccc2c(c1)/C(=N/O)CCS2,i,0.7
O=C(/C=C/c1ccco1)N1CCN(C/C=C/c2ccccc2)CC1,i,1.3
CC(=O)N1CCc2c(sc(NC(=O)Cc3ccccc3)c2C(N)=O)C1,i,0.45
Clc1ccc2nc(C3CCN(Cc4ccccc4)CC3)[nH]c2c1,i,-0.04
N[C@@H](Cc1c[nH]c2ccccc12)C(=O)O,i,0.18
COc1cc(/C=C2\SC(N3CCC(C)CC3)=NC2=O)ccc1O,i,0.14
CCCCN(CCCC)Cc1ccc(N)cc1,i,-0.34
CCOC(=O)c1c(SCC(=O)Nc2nccs2)nc(C)c(C)c1C,i,-3.3
Cc1nc2ccc(N)cc2s1,i,-0.02
O=C(Nc1ncc(C(F)(F)F)cc1Cl)C1COc2ccccc2O1 (stereo not drawn),i,-0.85
CCOC(=O)CN1C(=N)N(c2nc(NC(C)C)nc(OC)n2)CC1=O,i,-0.86
Cc1ccc(S(=O)(=O)N(C)c2cc(S(=O)(=O)Nc3ccncc3)c(C)cc2C)cc1,i,6.4
CCCCCCCCNc1ncnc2ccccc12,i,-0.82
O=C(CN1CCC(n2nnc3cc(F)ccc32)CC1)NCCc1nc2ccccc2[nH]1,i,0.56
CCOc1ccccc1/C=C/c1onc(C)c1S(=O)(=O)N1CCC(C(=O)NC(C)(C)C)CC1,i,0.08
O=C(O)c1nccnc1C(=O)N1CCN(c2ccccc2)CC1,i,0.1
COc1cc(NS(=O)(=O)c2ccc3c(c2)oc(=O)n3C)cc(OC)c1OC,i,-0.21
COCCn1c(SCC(=O)Nc2ccccc2C(F)(F)F)nc2ccccc2c1=O,i,-0.03
O=c1[nH]c2ccccc2nc1/C=C/c1ccc(Cl)cc1,i,0.09
O=C(CCCOc1ccc(Cl)cc1Cl)NCCCO,i,0.66
Cc1cc(C)cc(NC(=S)N2CCN(CCO)CC2)c1,i,1.5
CC(=O)O[C@@H]1[C@@H](O)[C@@H](O)[C@H](Oc2c(-c3ccc(O)cc3)oc3c(CC=C(C)C)c(O)cc(O)c3c2=O)O[C@H]1C,-10*,0.41*
COC(=O)c1ccc(COc2ccccc2/C=C(\C#N)C(=O)Nc2c(C)cc(C)cc2C)cc1,-7.2*,-0.37*
Cc1c(C(=O)Nc2ccc(S(=O)(=O)N(C)C3CCN(C)CC3)cc2)oc2c(Cl)cccc12,i,-0.06
O=C(CSc1nc2ncccc2[nH]1)NCc1ccco1,i,0.05

# Part of the list above in order of formula weight, smallest number first.
SMILES,KCNQ2 block,KCNQ2 block baseline
COc1ccc(N2CCN(C(=O)C3CCCO3)CC2)cc1 (stereo not drawn),i,-0.3
O=c1[nH]c2ccc([N+](=O)[O-])cc2nc1/C=C(\O)c1ccccc1,i,-0.07
Cc1ccc(S(=O)(=O)N2CCN(Cc3ccccc3C(F)(F)F)CC2)cc1,-6*,-0.12*

# Other results
SMILES,KCNQ2 block,KCNQ2 block baseline
CCCCCCCSc1nc(N)cc(=O)[nH]1,i,0.27
CCN1/C(=C/C=C/c2oc3ccc(-c4ccccc4)cc3[n+]2CC)Oc2ccc(-c3ccccc3)cc21,i,67
O=C(O)c1ccc(Cl)c(S(=O)(=O)Nc2ccc3[nH]c(=O)[nH]c3c2)c1,i,1.5
CC/C(Cc1ccccc1)=N/NC(=O)CNC(=O)c1ccc(Cl)cc1Cl,i,0.64
COc1ccccc1NC(=O)Cc1ccc(-c2ccccc2)cc1,i,-2.1
COc1ccc(-c2ccc3sc4ccccc4c(=O)c3c2)cn1,i,-0.48
CCOc1ccc(-c2nc(N)ncc2-c2ccc(OC)cc2)c(O)c1,i,1.1
COC(=O)c1ccccc1NC(=O)c1cc(OC)cc(OC)c1,i,-0.49
COc1cc(Br)cc(C2C3=C(CCCC3=O)N(c3ccc(F)cc3)C3=C2C(=O)CCC3)c1O,i,0.64
Cc1ccccc1NC(=O)c1ccc(Nc2c([N+](=O)[O-])cc([N+](=O)[O-])c3ccccc23)cc1,i,0.62
Cc1ccc(S(=O)(=O)N2CCN(C(=O)c3ccc(-n4cncn4)c([N+](=O)[O-])c3)CC2)cc1C,i,0.13
CCC/C(O)=C1\C(=O)CCCC1=NCCc1ccc(OCC)c(OCC)c1,i,-0.14
COC(=O)N/N=C(C)\C=C\c1ccco1,i,-1.6
CCOC(=O)N1CCN(C(=S)NC(=O)C2CCCC2)CC1,i,1.8
CCC(C(=O)Nc1cc(Cl)ccc1OC)c1ccccc1 (stereo not drawn),i,1.2
O=c1c2ccccc2nnn1COc1cccc2ccccc12,i,0.92
Cc1ccc(S(=O)(=O)N(C)C)cc1NC(=S)NCc1ccco1,i,-0.6
CCN(CC(=O)NC)S(=O)(=O)c1ccc(Br)cc1,i,0.39
CSc1nnc(C)c(/C=C/Nc2ccc(C)cc2)n1,i,0.78
COc1ccc(-n2c(C)nc3cc(C(=O)N4CCOCC4)ccc32)cc1,i,-0.01

# Some of the entries above in a different format.
> CSc1nnc(C)c(/C=C/Nc2ccc(C)cc2)n1
  KCNQ2 block: i	KCNQ2 block baseline: 0.78
> Cc1ccc(S(=O)(=O)N(C)C)cc1NC(=S)NCc1ccco1
  KCNQ2 block: i	KCNQ2 block baseline: -0.6
> CCOC(=O)N1CCN(C(=S)NC(=O)C2CCCC2)CC1
  KCNQ2 block: i	KCNQ2 block baseline: 1.8
> CCN(CC(=O)NC)S(=O)(=O)c1ccc(Br)cc1
  KCNQ2 block: i	KCNQ2 block baseline: 0.39

# The results go on.
SMILES,KCNQ2 block,KCNQ2 block baseline
COC(=O)CCC(=O)OC1(C)C(=O)C2=CN(c3ccccc3)C(c3ccc(OC)cc3)=CC2=C(Br)C1=O (stereo not drawn),i,-1.1
O=C(CCNC(=O)c1ccccc1Cl)Nc1cc(C(F)(F)F)ccc1N1CCCC1,i,-0.69
Cc1cccc2cc(CN(CCCO)C(=O)Nc3ccccc3Cl)c(=O)[nH]c12,i,-0.73
COc1ccc(C2(CNC(=O)c3ccc(C)cc3)CCOCC2)cc1,i,0.07
Cc1cc(N2CCCC2)ccc1/C=C1/C(=O)N(C)C(=S)N1C,i,-1.4
Cn1nc(C(F)(F)F)c(-c2ccc(Br)cc2)c1NC(=O)c1cccnc1,i,-0.29
COc1cccc(OC)c1C(=O)Nc1ccccc1C(=O)N1CCCC1,i,0.63
O=C(CSc1nnc(COc2ccc(Cl)cc2)o1)NC1CCCCC1,i,0.03
O=C(NCC(c1cccs1)N1CCOCC1)c1cc([N+](=O)[O-])cc([N+](=O)[O-])c1 (stereo not drawn),i,0.29
Cc1cc(C)n2nc(Sc3ncccc3[N+](=O)[O-])nc2n1,i,0.11
COC(=O)c1cn(S(=O)(=O)c2ccccc2)c2ccccc12,i,-0.15
O=[N+]([O-])c1ccc(CSc2nc3ccccc3[nH]2)cc1,i,2.8
O=C(CSC1CC(=O)N(CCc2ccccc2)C1=O)Nc1ccc(Br)cc1 (stereo not drawn),i,-1.1
CCCCn1c(N)c(N(CCOC)C(=O)COC(=O)CSc2cc(C)c3ccccc3n2)c(=O)[nH]c1=O,i,1.9
O=C(c1ccc(N2CCN(C3CC(=O)N(Cc4cccs4)C3=O)CC2)cc1)c1cccnc1 (stereo not drawn),i,0.36
Cn1c2ccccc2c2c(C(=O)N3CCN(c4ccccc4)CC3)cn(C3CCCC3)c(=O)c21,i,0.92
O=S(=O)(NCCSCc1ccc(Cl)cc1Cl)c1ccc2c(c1)OCCO2,i,0.13
CC1CC(C)CN(S(=O)(=O)c2ccc3c(c2)CC(C)N3C(=O)C2CC2)C1 (stereo not drawn),i,1.1
Cc1ccc2[nH]c(=O)c(CN(Cc3cccs3)S(=O)(=O)c3ccc4c(c3)OCCO4)cc2c1,i,-0.19
CCC(Oc1ccccc1)C(=O)Nc1nnc(S(=O)(=O)Nc2ccccc2)s1 (stereo not drawn),i,-0.45
CCCOc1ccc(C(=O)NNC(=S)NC(=O)c2ccccc2[N+](=O)[O-])cc1,i,-0.44
CCCCNC(=O)CNC(=O)c1cccs1,i,-1.8
Cc1onc(-c2c(F)cccc2Cl)c1-c1nnc(-c2ccc(C(F)(F)F)cc2)o1,i,2.4
Cc1ccc(NC(=S)N(CCCN2CCOCC2)Cc2ccco2)cc1Cl,i,0.75
Cc1ccc(OCC(=O)Nc2cc(NC(=O)COc3ccc(C)cc3)cc(C(=O)O)c2)cc1,i,2.9
COC(=O)c1cc2ccsc2n1CC(=O)Nc1cc(Cl)ccc1OC,i,2.9
Clc1cccc(-c2nnc(-c3ccno3)o2)c1,i,0.74
CC(C)(C)CC(=O)Nc1cc2c3c(c1)CCN3C(=O)CC2,i,-0.9
O=C(CNC(=O)C1CCCCC1)OCC(=O)c1ccc(Cl)s1,i,0.18
O=C(Nc1cccc(F)c1)C1CC(=O)N(c2ccc(Br)cc2)C1 (stereo not drawn),i,-0.03
O=C(Nc1ccc2[nH]ncc2c1)c1cccc(F)c1,i,0.36
O=C(c1ccc(SCc2cccc(Br)c2)c([N+](=O)[O-])c1)N1CCN(c2ccccn2)CC1,i,0.37
